# High-throughput results: PubChem, National Center for Advancing Translational Sciences (NCATS)
# TRPML1 ag – agonists of human TRPML1 channel | Q9GZU1 | TRPML1-expressing cells, Ca2+ dye fluorescence, FDSS; host cell line not named in the record; reference of the full effect not given here | activation, % (test concentration not listed) | 410,000 tested, 0.12% active; in the data active = activation above about 50%; inconclusive = about 30% to 50%; inactive = below about 30%; further: 0% is about no effect; the text of the record puts the active cut at 80%
# Target sequence (Q9GZU1 whole entry, looked up): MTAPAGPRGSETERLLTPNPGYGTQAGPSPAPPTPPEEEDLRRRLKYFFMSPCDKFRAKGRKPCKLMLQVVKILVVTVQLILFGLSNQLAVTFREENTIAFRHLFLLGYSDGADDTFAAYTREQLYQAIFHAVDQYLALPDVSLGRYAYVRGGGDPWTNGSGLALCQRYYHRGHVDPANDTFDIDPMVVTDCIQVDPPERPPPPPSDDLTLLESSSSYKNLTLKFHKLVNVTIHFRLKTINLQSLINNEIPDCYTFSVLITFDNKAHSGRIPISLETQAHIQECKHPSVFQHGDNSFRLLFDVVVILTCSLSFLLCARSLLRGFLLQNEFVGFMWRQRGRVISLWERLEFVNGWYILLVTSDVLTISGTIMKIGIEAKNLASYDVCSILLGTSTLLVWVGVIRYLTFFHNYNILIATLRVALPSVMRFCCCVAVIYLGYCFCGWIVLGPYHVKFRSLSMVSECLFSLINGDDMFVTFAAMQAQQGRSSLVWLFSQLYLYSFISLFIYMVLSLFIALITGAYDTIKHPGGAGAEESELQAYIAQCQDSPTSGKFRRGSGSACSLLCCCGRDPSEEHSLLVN
#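 Tet-induced TRPML1-DL cells, 1,500 per well, cultured overnight, were loaded with a no-wash Ca2+ dye for 45–90 min. Calcium fluorescence was recorded on the FDSS for 110 s after compound addition, before the EC80 agonist (4 uM 54-4) was added.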
# TRPML1 inh – inhibitors of human TRPML1 channel. Q9GZU1. TRPML1-inducible cells, Ca2+ dye fluorescence, FDSS; stronger effect = lower value; inhibition of EC80 agonist-evoked calcium signal. activity change, negative = inhibition, % (no concentration beside the values). 390,000 tested, 0.02% active. AID 624415; in the data active means activity change below about -50%; inconclusive means about -30% to -50%; inactive means above about -30%;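 further: stimulus is agonist 54-4 at its EC80 concentration; on the % scale 0 is the no-effect control and ±100 the full control effect; compound concentration not given in the record; the text of the record puts the active cut at -80%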
#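 Calcium fluorescence in TRPML1-DL cells induced overnight with Tet: a 110 s read after compound pin addition, then a 110 s antagonist read after challenge with 54-4 at 4 uM final (EC80).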
# CtBP-E1A blk – CtBP/E1A binding inhibition; 340,000 tested, 0.49% active; AlphaScreen GST-E1A/His-CtBP binding, 1536-well; stronger effect = lower value; control for the full effect not named in the record; AID 651724; activity change, % (concentration not given with the values); in the data active means activity change below about -65%; inconclusive means about -30% to -65%; inactive means above about -30%; further: on the % scale 0 is the no-effect control and ±100 the full control effect
#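 AlphaScreen with 125 nM GST-E1A and 125 nM His-CtBP (5X stocks) in Tris pH 8.0, 300 mM NaCl, BSA, Tween 20, TCEP. Compounds preincubated 2 h at 37 deg C, then glutathione donor/nickel acceptor beads added for 1 h at 37 deg C in dark.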
# PINK1 expr mod – changes PINK1 expression; Potency, µM (top dose mostly 76.6 µM), without a hit: top-dose activation (PINK1 increase), most hits filed as activators; PINK1 immunofluorescence, high-content cytometry, 24 h; 410,000 tested, 0.2% active; active = well fitted activation curve with a large enough effect; inconclusive = small, poorly fitted or top-dose-only effect; inactive = flat fitted curve, though single readings scatter; cell line not stated here;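 further: potency means the concentration at half of the fitted maximal effect; % of control where 0% means no effect; nearly all actives have a fitted effect of over 65% in size; a mitochondrial uncoupler was the plate control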
#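 A stable cell line was treated with compounds at 5 concentrations for 24 hours, with CCCP as control. PINK1 levels and mitochondrial localization were measured by immunofluorescence with mitochondrial, cell and nuclear markers after fixation, read by laser-scanning cytometry.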
# Six1-Eya2 blk – Six1/Eya2 interaction inhibition. Q15475+O00167. 360,000 tested, 0.56% active. AlphaScreen GST-Six1/His-Eya2 binding, biochemical; stronger effect = lower value; control for the full effect not named in the record. activity change, % (no concentration beside the values); in the data active = activity change below about -65%; inconclusive = about -30% to -65%; inactive = above about -30%; further: on the % scale 0 is the no-effect control and ±100 the full control effect; compound concentration not given in the record
#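 AlphaScreen luminescence read after one hour at 37 °C in darkness. Pin-transferred compounds met GST-Six1 and His-Eya2 protein (5X stock 250 nM/500 nM) plus glutathione donor and Ni-chelate acceptor beads (5X, 50 ug/mL).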
# D2 ag – human D2 receptor agonism in beta-arrestin assay; P14416; DiscoveRx PathHunter D2 beta-arrestin, luminescence, 90 min; 100% = 57 uM dopamine signal; activation, % (concentration not given with the values); 360,000 tested, 0.084% active; in the data active = activation above about 40%; inconclusive = about 15% to 40%; inactive = below about 15%; further: compound concentration not given in the record; the text of the record calls up to 30% inactive
# Target sequence (P14416 whole entry, looked up): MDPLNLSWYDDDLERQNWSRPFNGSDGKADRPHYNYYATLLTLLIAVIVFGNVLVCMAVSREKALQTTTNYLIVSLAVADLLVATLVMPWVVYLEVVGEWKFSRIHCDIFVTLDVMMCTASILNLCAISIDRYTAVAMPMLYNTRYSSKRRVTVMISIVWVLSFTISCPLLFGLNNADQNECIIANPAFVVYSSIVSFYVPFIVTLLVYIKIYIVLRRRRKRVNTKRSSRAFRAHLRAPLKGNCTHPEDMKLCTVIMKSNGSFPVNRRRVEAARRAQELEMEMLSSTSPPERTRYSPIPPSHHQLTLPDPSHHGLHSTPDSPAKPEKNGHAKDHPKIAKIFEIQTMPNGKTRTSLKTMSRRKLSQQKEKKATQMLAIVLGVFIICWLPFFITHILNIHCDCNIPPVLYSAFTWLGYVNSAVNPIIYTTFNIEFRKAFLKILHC
#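 DiscoveRx PathHunter D2 beta-arrestin cells (2,100/well) attached overnight, then compound-stimulated 90 min at 37 C in HBSS/10 mM HEPES/0.1% Tween-20 buffer; beta-galactosidase complementation read by luminescence after 1 h at ambient temperature. Dopamine 57 uM final (EC100) as control.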
# * = called active by the depositor; ? = inconclusive; / = no result given; [ ] = remark or other dose.
SMILES,TRPML1 ag,TRPML1 inh,CtBP-E1A blk,PINK1 expr mod,Six1-Eya2 blk,D2 ag
O=C(CCCN1C(=O)c2ccccc2C1=O)Nc1nncs1,-0.4,25,8,0.3%,7,0.9
Cc1nc2cc(C(=O)NCc3cccnc3)ccc2n1-c1ccc(F)cc1F,-0.2,11,1,-1.7%,3,-2.9
COc1ccc(S(=O)(=O)NNC(N)=S)cc1,-0.1,1,6,-1.1%,2,-6.0
Cc1ccc(OCC(=O)Nc2ccc3c(c2)nc(CCN2CCN(C)CC2)n3C)cc1,1.0,0,/,1.4%,1,2.0
COc1cccc(C(=O)OC2CCN(C)CC2)c1,-0.6,15,-7,1.3%,12,-5.3
CC(C)=NNc1cnnc2ccc([N+](=O)[O-])cc12,-0.6,/,?,-0.8%,?,1.0
C/C(CC(=O)NC(C)(C)C)=N\NC(N)=S,-0.9,-4,0,0.3%,14,8.6
CCC(=O)Nc1ccc(C(=O)OCC(=O)c2ccc(C)c([N+](=O)[O-])c2)cc1,0.9,-6,-6,-0.2%,2,-0.2
CCOC(=O)C1(CCCc2ccccc2)CCN(C(=O)CCN2CCCCC2=O)CC1,0.5,-3,2,-1.3%,8,-1.1
O=C1c2ccccc2C(O)(c2ncc[nH]2)N1CCc1ccccc1 (configuration not stated),0.5,-18,3,0.7%[38.3 µM],6,0.9
Cc1cccc(C)c1OC(=O)CSc1nnc(CNC(=O)c2ccccc2)o1,0.5,-6,/,-0.4%,/,/
CCC(=O)Nc1cccc(-c2csc(-c3ccccc3)n2)c1,1.6,-4,3,1.9%,-1,-3.8
Cc1ccccc1N(CC(=O)NCc1ccco1)C(=O)CCC(=O)Nc1nccs1,-0.1,29,0,-0.6%,-7,-1.2
CCCc1nnc(NC(=O)CCC(=O)NC2CCCCC2)s1,0.1,0,/,0.5%,4,-1.0
Cc1ccc(-n2c(C)cc(C3N=C(N)Nc4nc5ccccc5n43)c2C)c(C)c1 (configuration not stated),1.5,-5,5,/,-20,-4.9
O=C(CCc1nnc(CCCCc2ccccc2)o1)NCCn1cccn1,0.3,67,/,-0.3%,-6,-4.0
COc1ccc(-c2nc(Cn3c(SCc4cccc(Cl)c4)nc4ccncc43)c(C)o2)cc1,1.0,-25,/,3.4%,/,/
COC(=O)C(Cc1ccc(O)cc1)NC(=O)NC12CC3CC(CC(C3)C1)C2 (configuration not stated),1.3,-11,3,-0.7%,40,-1.6
O=c1c(Cl)c(NCCCO)cnn1-c1nc2ccccc2[nH]1,-0.5,41,0,-2.4%,-4,-1.9
COc1ccc(S(=O)(=O)NNC(=O)Nc2ccccc2OC)c(OC)c1,-0.3,11,-6,0.2%,3,-2.1

# Shown with bars between the fields: part of the list above
mol | TRPML1 ag | TRPML1 inh | CtBP-E1A blk | PINK1 expr mod | Six1-Eya2 blk | D2 ag
Cc1ccc(-n2c(C)cc(C3N=C(N)Nc4nc5ccccc5n43)c2C)c(C)c1 (configuration not stated) | 1.5 | -5 | 5 | / | -20 | -4.9
COc1ccc(S(=O)(=O)NNC(=O)Nc2ccccc2OC)c(OC)c1 | -0.3 | 11 | -6 | 0.2% | 3 | -2.1
CCC(=O)Nc1cccc(-c2csc(-c3ccccc3)n2)c1 | 1.6 | -4 | 3 | 1.9% | -1 | -3.8

# 4 entries from above in another layout:
# Fields: TRPML1 ag | TRPML1 inh | CtBP-E1A blk | PINK1 expr mod | Six1-Eya2 blk | D2 ag
> CCCc1nnc(NC(=O)CCC(=O)NC2CCCCC2)s1
→ 0.1 | 0 | / | 0.5% | 4 | -1.0
> O=c1c(Cl)c(NCCCO)cnn1-c1nc2ccccc2[nH]1
→ -0.5 | 41 | 0 | -2.4% | -4 | -1.9
> COc1ccc(S(=O)(=O)NNC(=O)Nc2ccccc2OC)c(OC)c1
→ -0.3 | 11 | -6 | 0.2% | 3 | -2.1
> CCC(=O)Nc1cccc(-c2csc(-c3ccccc3)n2)c1
→ 1.6 | -4 | 3 | 1.9% | -1 | -3.8

# Other results.
SMILES,TRPML1 ag,TRPML1 inh,CtBP-E1A blk,PINK1 expr mod,Six1-Eya2 blk,D2 ag
CCOc1cc(-c2nc(-c3ccc(Br)cc3)no2)cc(OCC)c1OCC,0.1,4,/,-0.7%,/,/
COc1ccc(NC(=O)CSc2nc(N)c(C#N)cc2C#N)cc1,0.6,7,?,?,?,-2.6
CC1CN(S(=O)(=O)c2cc(C(=O)N(C)Cc3cccs3)ccc2Cl)CC(C)O1 (configuration not stated),1.1,-8,-2,1.2%,7,0.9
CCn1c(SCC(=O)N2CCCC2)nc2ccccc2c1=O,1.1,-9,3,2.5%[38.3 µM],2,0.4
Cc1nc2ccccc2c2oc(C(=O)N3CCCC(C)C3)cc12 (configuration not stated),6.3,-6,/,0.7%,6,2.8
O=S1(=O)CC=C(CSC(=S)NC2CCS(=O)(=O)C2)C1 (configuration not stated),0.4,-10,6,9.3%,4,-6.3
COc1ccc(CCNC(=O)C(C(=O)c2ccccc2)n2cc(Cl)ccc2=O)cc1OC (configuration not stated),-0.7,16,-2,3.1%,-2,-7.2
CC1CCCN(S(=O)(=O)c2ccc(NC(=O)C3CC(=O)N(C(C)(C)C)C3)cc2)C1 (configuration not stated),0.2,-10,14,0.6%,13,-1.0
COc1ccc(Cl)cc1C(=O)O/N=C(\N)c1ccncc1,-0.4,2,9,1.1%,11,?
COc1ccc(CCNC(=O)CSc2nc3ccccc3c3nc(CCN4CCCCC4)nn23)cc1OC,-0.9,-20,14,2.6%,-7,-4.1
O=C(Cc1ccccc1[N+](=O)[O-])NC1CC1,0.5,18,1,-0.6%,6,0.5
CN1OC2C(=O)N(c3ccccc3)C(=O)C2C1c1ccc(F)cc1 (configuration not stated),-0.2,-15,12,11%[38.3 µM],5,-0.6
CCOC(=O)Nc1c(Cl)[nH]c(=O)n(C)c1=O,0.9,-4,-3,2.1%,-5,-2.4
Cc1oc(-c2ccccc2F)nc1CS(=O)CC(=O)NCc1cccs1 (configuration not stated),-0.1,10,0,-0.5%,4,-4.7
CC(C)N(C(=O)CSc1nnc(-c2cc3ccccc3cc2O)n1Cc1ccco1)C(C)C,-0.4,5,-10,2.2%[38.3 µM],-14,-5.8
CCCNc1nc(C)cc(-c2cc(C(=O)Nc3ccccc3)on2)n1,-0.1,-18,/,7.2%,7,0.4
O=C1CC(N2CCN(c3ccccc3F)CC2)C(=O)N1c1ccc2c(c1)OCCO2 (configuration not stated),0.0,11,0,0.1%,-5,-5.3
CC/C=C/C(=O)N1CC2(CC(c3cccc(NC(=O)c4ccccc4)c3)=NO2)C[C@@H]1C(N)=O (some centres not stated),-0.1,-10,-3,-0.3%,1,-0.4
CCOc1ccc(NC(=O)CSC2=Nc3ccccc3C3=NC(Cc4ccccc4)C(=O)N23)cc1 (configuration not stated),-0.2,31,/,-1.4%,/,/
Cn1c(SCC(=O)c2ccccc2)nnc1-c1ccncc1,-0.5,-5,3,4.1%,2,-1.4
CC(=O)N1CCCC1C(=O)O (configuration not stated),-0.2,-14,29,1.4%,29,-1.4
COc1ccc(/C=C/C(=O)NC2CC3CCC2C3)cc1 (configuration not stated),-0.2,-12,-1,0.4%,1,-2.9
Cc1ccc(Cl)cc1NC(=O)CSc1nc2c(c(=O)[nH]1)CN(Cc1ccccc1)CC2,0.7,5,/,-0.1%,/,/
O=C(NCC(c1cccnc1)N1CCN(c2ccccc2F)CC1)OCc1ccccc1 (configuration not stated),-0.7,-13,5,2.3%,-8,1.8
CCOC(=O)[C@]12CCC=C1N(Cc1cccc3ccccc13)C(=O)[C@H](CC(=O)N1CCSCC1)C2,-0.6,/,-15,0.1%,-20,/
CN(C)CC(C)(C)CNC(=O)C1CCN(Cc2ccccc2O)CC1,0.4,-9,3,-0.7%,1,-2.6
Cc1ccc(C(=O)O)cc1NC(=S)NC(=O)Cc1ccccc1,-0.4,-1,-1,1.6%,2,-2.2
COc1ccc(CNC(=O)CSc2nnc3c(n2)[nH]c2ccc(OC)cc23)cc1,-0.2,12,-22,0.9%,-25,1.6
O=C(CN1C(=O)CC(c2ccccc2)Sc2ccccc21)NCC1CCCO1 (configuration not stated),0.6,-21,-2,0.7%,9,-2.7
NC(=O)C1(NC(=O)[C@@H]2CC3(CC(c4cccc(NC(=O)[C@@H]5CCC(=O)N5)c4)=NO3)CN2C(=O)Cc2ccc(C(F)(F)F)cc2)CC1 (some centres not stated),-0.2,7,4,0.2%,2,-2.2
COc1ccccc1CNC(=O)C1CCCN(S(=O)(=O)c2ccc3c(c2)CCCN3C(C)=O)C1 (configuration not stated),0.2,1,/,-0.3%,/,/
Cc1ccc(NC(=O)OCc2cn(-c3ccc(Cl)cc3)nn2)cc1,-0.4,-3,10,0.9%,11,0.4
Brc1ccc(Nc2nc(-c3cccnc3)cs2)cc1,-0.3,-19,5,14%,10,-3.3
COCCSc1nnc(NS(=O)(=O)c2ccc(F)cc2)s1,0.0,-1,4,-1.6%,2,1.4
CCCCNC(=S)N(CCCN(C)C)Cc1cc2cc3c(cc2[nH]c1=O)OCO3,-0.3,13,/,-0.1%,7,-4.6
Cc1nc(SCC(=O)NC(=O)NC(C)(C)C)nc(C)c1C,0.4,-12,/,1.1%,6,0.8
Cc1cccc(OCc2nnc(SCC(=O)c3ccccc3)o2)c1,0.7,3,20,5.4%,7,-0.6
CC(C)C(c1nnnn1Cc1cccs1)N1CCN(C(=O)c2ccco2)CC1 (configuration not stated),1.0,10,-7,0.0%,-8,-1.2
CC1=C(C(=O)OCCBr)C(c2cccc3ccccc23)NC(=O)N1 (configuration not stated),-0.6,8,5,2.4%,6,0.1
O=C(O)c1cc(N2C(=O)C3C4C=CC(C4)C3C2=O)ccc1NCc1cccnc1 (configuration not stated),-0.2,13,2,0.7%,3,1.2
Cc1cccc(C)c1NC1=C(Cl)C(=O)OC1OC(=O)c1ccccc1 (configuration not stated),0.4,64,-22,0.4%,1,6.8
CS(=O)(=O)c1[nH]nc(-c2ccccc2)c1C#N,4.0,15,0,1.5%,6,-1.4
CN1CCC(OC(=O)COc2ccc(C(C)(C)C)cc2)CC1,0.8,-4,-1,-0.3%[38.3 µM],2,-1.6
CC1(C)Cc2c(cnn2-c2ccccc2)C(NC(=O)CCCn2cncn2)C1 (configuration not stated),-0.3,34,9,0.2%,1,-5.6

# By substructure, the compounds so far with a furan ring, fused or not (4)
SMILES,TRPML1 ag,TRPML1 inh,CtBP-E1A blk,PINK1 expr mod,Six1-Eya2 blk,D2 ag
Cc1ccccc1N(CC(=O)NCc1ccco1)C(=O)CCC(=O)Nc1nccs1,-0.1,29,0,-0.6%,-7,-1.2
Cc1nc2ccccc2c2oc(C(=O)N3CCCC(C)C3)cc12 (configuration not stated),6.3,-6,/,0.7%,6,2.8
CC(C)N(C(=O)CSc1nnc(-c2cc3ccccc3cc2O)n1Cc1ccco1)C(C)C,-0.4,5,-10,2.2%[38.3 µM],-14,-5.8
CC(C)C(c1nnnn1Cc1cccs1)N1CCN(C(=O)c2ccco2)CC1 (configuration not stated),1.0,10,-7,0.0%,-8,-1.2
